UUG fidelity: alters start codon recognition fidelity in yeast; 350,000 tested, 0.13% active; activity score, % at 18.7 µM; S. cerevisiae UUG-firefly luciferase reporter, luminescence/redox ratio;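 active means replicate mean at a twofold rise or more, about +100% in these data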;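 further: firefly luciferase made from a UUG start codon reports start codon fidelity; reporter light over untreated wells divided by growth signal over untreated wells; some hits fall short of that in this replicate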
* = called active by the depositor. Some of the compounds tested; the hit share may differ from the screen's.

UUG fidelity | SMILES
-6 | C[C@@H]1CN([C@H](C)CO)C(=O)c2cccc(N(C)C)c2O[C@H]1CN(C)C(=O)Nc1ccccc1
-25 | C[C@H]1CN([C@@H](C)CO)C(=O)c2cc(NC(=O)CCN3CCOCC3)ccc2O[C@@H]1CN(C)Cc1ccc(C(=O)Nc2ccccc2N)cc1
2 | COc1ccc(CN2C[C@H](O)COC[C@H]3O[C@@H](CC(=O)N4CCc5ccccc5C4)CC[C@@H]32)cc1
-13 | CO[C@@H]1CN(C)C(=O)c2ccc(NC(=O)C3CCC3)cc2OC[C@H](C)N(Cc2ccccn2)C[C@@H]1C
13 | C[C@@H]1CN([C@H](C)CO)C(=O)c2cccc(NC(=O)Nc3ccc(F)cc3)c2O[C@@H]1CN(C)S(=O)(=O)c1ccc(Cl)cc1
-16 | Cc1ccc(S(=O)(=O)N(C)C[C@H]2OCc3ccccc3-c3c(n(C)c4ccccc34)C(=O)N([C@H](C)CO)C[C@@H]2C)cc1
30 | C[C@H](CO)N1C[C@H](C)[C@H](CN(C)Cc2ccc3c(c2)OCO3)Oc2ccc(NS(=O)(=O)c3ccccc3)cc2CC1=O
-13 | CCCC(=O)Nc1ccc2c(c1)C(=O)N(C)C[C@H](OC)[C@H](C)CN(Cc1ccccn1)[C@@H](C)CO2
-7 | Cc1ccc(S(=O)(=O)N(C)C[C@H]2Oc3ccc(NC(=O)C4CC4)cc3C(=O)N([C@@H](C)CO)C[C@@H]2C)cc1
0 | Cc1ccc(-c2ccc([C@H]3[C@@H](CO)N4CCCCN(S(=O)(=O)c5ccccc5C)C[C@@H]34)cc2)cc1
6 | COc1ccc(CN(C)C[C@@H]2Oc3ccc(NC(=O)Cn4cnnn4)cc3CC(=O)N([C@@H](C)CO)C[C@@H]2C)cc1
8 | COc1ccc(C#Cc2ccc([C@H]3[C@H]4CN(C(=O)Nc5ccc(F)cc5)CCCCN4[C@H]3CO)cc2)cc1
-3 | CC(C)NC(=O)N1CCCCN2[C@H](CO)[C@H](c3ccc(C#C[C@H](C)O)cc3)[C@@H]2C1
19 | CCCNC(=O)C[C@@H]1CC[C@@H]2[C@H](COC[C@@H](O)CN2C(=O)Nc2c(C)noc2C)O1
-5 | CN1c2ccc(-c3ccccc3F)cc2[C@H]2[C@H](CCN2C(=O)Cc2ccccn2)[C@@H]1CO
7 | Cc1noc(C)c1S(=O)(=O)Nc1cccc2c1O[C@H](CN(C)C(=O)Nc1ccc(F)cc1)[C@H](C)CN([C@H](C)CO)C2=O
-11 | OC[C@H]1[C@@H](c2ccc(-c3cccnc3)cc2)[C@@H]2CN(CC3CCOCC3)CCCCN12
-13 | COCC(=O)N(C)C[C@H]1[C@H](c2ccccc2)[C@H](CO)N1C(=O)Cc1ccncc1
22 | O=C(CC(F)(F)F)N1C[C@H]2[C@@H](c3ccccc31)[C@@H](CO)N2C(=O)Cc1cccnc1
11 | C[C@H]1CN([C@@H](C)CO)C(=O)c2cc(NS(=O)(=O)c3ccc(Cl)cc3)ccc2O[C@H]1CN(C)Cc1ccc(Oc2ccccc2)cc1
-10 | CN(C)CC#Cc1ccc([C@H]2[C@@H](CO)N3CCCCN(C(=O)c4ccc5c(c4)OCO5)C[C@@H]23)cc1
13 | O=C(c1cccc(F)c1)N1CCCCN2[C@H](CO)[C@@H](c3ccc(C#CC4(O)CCCC4)cc3)[C@H]2C1
-1 | C/C=C/c1ccc([C@@H]2[C@@H](CO)N(C(=O)NCCC)[C@H]2CNC(=O)C2CC2)cc1
13 | COc1cccc(S(=O)(=O)Nc2ccc3c(c2)[C@@H]2C[C@@H](CC(=O)N(C)C)O[C@@H](CO)[C@@H]2O3)c1
7 | CC(C)NC(=O)N(C)C[C@@H]1Oc2ccc(NC(=O)CCN3CCOCC3)cc2CC(=O)N([C@@H](C)CO)C[C@H]1C
7 | O=C(c1ccccc1)N1C[C@@H]2[C@H](c3ccccc31)[C@@H](CO)N2C(=O)c1cccc(F)c1
-17 | COc1ccc(-c2ccc3c(c2)[C@@H]2[C@@H](CCN2C(=O)c2ccc4c(c2)OCO4)[C@H](CO)N3C)cc1
-3 | O=S(=O)(c1cccs1)N1CCCCN2[C@@H](CO)[C@@H](c3ccc(C4=CCCCC4)cc3)[C@@H]2C1
18 | O=C(C[C@@H]1CC[C@@H]2[C@H](COC[C@@H](O)CN2Cc2ccc(F)cc2)O1)N1CCc2ccccc2C1
2 | CCC(=O)N1[C@H](CO)[C@H](c2ccc(-c3cccc(F)c3)cc2)[C@@H]1CNC(C)=O

Brought forward from above: 2 entries; new compounds follow.
UUG fidelity | SMILES
18 | O=C(C[C@@H]1CC[C@@H]2[C@H](COC[C@@H](O)CN2Cc2ccc(F)cc2)O1)N1CCc2ccccc2C1
2 | CCC(=O)N1[C@H](CO)[C@H](c2ccc(-c3cccc(F)c3)cc2)[C@@H]1CNC(C)=O
3 | CN1C(=O)c2cc(NC(=O)Cc3cccs3)ccc2OC[C@H]2O[C@@H](CC(=O)NCC3CCCCC3)CC[C@H]21
8 | CCNC(=O)[C@H]1[C@H](CO)[C@H]2Cn3c(ccc(C4=CCCCC4)c3=O)[C@H]2N1CC1CC1
-14 | O=C(C1CCCC1)N1C[C@@H]2[C@H](c3ccccc31)[C@H](CO)N2C(=O)c1cccnc1
1 | O=C(C[C@@H]1CC[C@@H]2[C@H](COC[C@@H](O)CN2Cc2cccc(C(F)(F)F)c2)O1)NCCc1ccccc1
-16 | C/C=C/c1ccc([C@@H]2[C@H](CO)N(C(C)=O)[C@H]2CNC(=O)CC2CC2)cc1
25 | CNC[C@H]1Oc2c(NS(=O)(=O)c3ccc(Cl)cc3)cccc2C(=O)N([C@@H](C)CO)C[C@@H]1C
-7 | CC(C)CC#Cc1ccc([C@H]2[C@H]3CN(C(=O)c4ccc5c(c4)OCO5)CCCCN3[C@H]2CO)cc1
-4 | OC[C@@H]1[C@@H](c2ccc(-c3ccccc3F)cc2)[C@H]2CN(Cc3ccncc3)CCCCN12
4 | COc1ccc(C#Cc2ccc3c(c2)[C@H]2[C@H](CCN2S(=O)(=O)c2cccc(OC)c2)[C@H](CO)N3C)cc1
14 | CCC(=O)N1C[C@@H](C)[C@@H](OC)CN(C)C(=O)c2cc(NC(=O)c3ccccc3)ccc2OC[C@@H]1C
11 | C[C@H]1CN([C@@H](C)CO)C(=O)c2cc(NS(=O)(=O)c3ccc(F)cc3)ccc2O[C@@H]1CN(C)CC1CC1
7 | O=C(CN1CCOCC1)N1CCCCN2[C@@H](CO)[C@@H](c3ccc(-c4ccccc4)cc3)[C@@H]2C1
14 | COc1ccccc1-c1ccc2c(c1)[C@@H]1[C@@H](CCN1C(=O)C1CC1)[C@H](CO)N2
-8 | Cc1noc(C)c1NC(=O)Nc1cccc2c1O[C@@H](CN(C)C(=O)NC1CCCCC1)[C@@H](C)CN([C@@H](C)CO)C2=O
2 | Cc1noc(C)c1S(=O)(=O)Nc1ccc2c(c1)C(=O)N([C@@H](C)CO)C[C@@H](C)[C@H](CN(C)S(=O)(=O)c1ccccc1)O2
-2 | CO[C@@H]1CN(C)C(=O)c2ccc(NC(=O)C3CCCCC3)cc2OC[C@@H](C)N(Cc2nccs2)C[C@H]1C
4 | C[C@@H]1CN([C@H](C)CO)C(=O)c2cc(NC(=O)CCN3CCOCC3)ccc2O[C@@H]1CN(C)C(=O)NC1CCCCC1
-5 | Cc1ccc(S(=O)(=O)Nc2ccc3c(c2)C(=O)N([C@H](C)CO)C[C@@H](C)[C@@H](CN(C)Cc2ccc4c(c2)OCO4)O3)cc1
3 | CO[C@@H]1CN(C)C(=O)c2cc(NC(=O)NC(C)C)ccc2OC[C@@H](C)N(C)C[C@H]1C
8 | COCCNC[C@@H]1[C@H](c2ccccc2)[C@H](CO)N1c1nc(C)c(C)s1
-15 | CO[C@H]1CN(C)C(=O)c2ccc(NS(C)(=O)=O)cc2OC[C@@H](C)N(C(=O)CC2CC2)C[C@@H]1C
28 | CO[C@@H]1CN(C)C(=O)c2cc(NC(=O)C3CC3)ccc2OC[C@H](C)N(C(=O)CN(C)C)C[C@@H]1C
15 | C[C@H]1CN([C@@H](C)CO)C(=O)c2cc(NS(=O)(=O)c3cccs3)ccc2O[C@@H]1CN(C)Cc1ccc(Oc2ccccc2)cc1
25 | CCCNC(=O)[C@H]1[C@H](CO)[C@H]2Cn3c(ccc(-c4ccc(OC)cc4)c3=O)[C@H]2N1CCC
-11 | N#Cc1ccc(-c2ccc3c(c2)[C@H]2[C@H](CCN2S(=O)(=O)c2ccccc2F)[C@@H](CO)N3)cc1
1 | C[C@H]1CN([C@@H](C)CO)C(=O)c2cc(NC(=O)Nc3ccc(C(F)(F)F)cc3)ccc2O[C@H]1CN(C)Cc1ccc(C(=O)O)cc1
21 | COCC(=O)Nc1ccc2c(c1)C(=O)N(C)C[C@H](OC)[C@H](C)CN(C(=O)Cc1ccccn1)[C@@H](C)CO2
1 | Cc1cc(C(=O)Nc2cccc3c2O[C@H](CN(C)Cc2ccc(-c4ccccc4)cc2)[C@@H](C)CN([C@@H](C)CO)C3=O)n(C)n1
-6 | COCC(=O)Nc1ccc2c(c1)C(=O)N(C)C[C@@H](OC)[C@H](C)CN(C(=O)c1cnccn1)[C@@H](C)CO2
-12 | CCNC(=O)C[C@@H]1CC[C@@H]2[C@H](COC[C@H](O)CN2Cc2ccccc2F)O1
14 | O=S(=O)(c1cccc(F)c1)N1CC[C@H]2[C@H](CO)Nc3ccc(-c4cccc(F)c4)cc3[C@H]21
-10 | O=C(NC[C@@H]1[C@@H](c2ccccc2)[C@@H](CO)N1C(=O)C1CCC1)NC1CCCC1
5 | CO[C@H]1CN(C)C(=O)c2cc(NC(C)=O)ccc2OC[C@H](C)N(Cc2ccccn2)C[C@H]1C
-2 | C[C@@H]1CN([C@H](C)CO)C(=O)c2cccc(NC(=O)Nc3ccc(F)cc3)c2O[C@H]1CN(C)Cc1ccc(Cl)c(Cl)c1
15 | Cc1ccc(S(=O)(=O)N(C)C[C@H]2Oc3ccc(NC(=O)NC4CCCCC4)cc3CC(=O)N([C@H](C)CO)C[C@H]2C)cc1
6 | C[C@H]1CN([C@@H](C)CO)C(=O)c2cc(NS(=O)(=O)c3ccc(Cl)cc3)ccc2O[C@H]1CN(C)C
5 | O=C(C[C@H]1CC[C@H]2[C@@H](COC[C@H](O)CN2C(=O)c2ccccc2F)O1)N1CCCCC1
12 | O=C(C[C@@H]1CC[C@H]2[C@@H](COC[C@H](O)CN2C(=O)Nc2ccc(Cl)c(Cl)c2)O1)NCc1ccc(F)cc1
10 | CC(=O)N1[C@H](CO)[C@@H](c2ccccc2)[C@@H]1CN(CC1CCC1)C(=O)CC1CC1
-7 | COCC(=O)Nc1ccc2c(c1)OC[C@H](C)N(C(=O)Cc1ccccn1)C[C@@H](C)[C@H](OC)CN(C)C2=O
7 | Cc1noc(C)c1S(=O)(=O)N(C)C[C@@H]1Oc2ccc(NS(=O)(=O)c3cn(C)cn3)cc2C(=O)N([C@@H](C)CO)C[C@@H]1C
-14 | C/C=C/c1ccc([C@H]2[C@@H](CO)N[C@@H]2CNC(=O)c2ccccc2F)cc1
28 | C[C@H]1CN([C@@H](C)CO)C(=O)Cc2cc(NC(=O)Cc3ccccc3)ccc2O[C@@H]1CN(C)Cc1ccncc1
-5 | Cc1noc(C)c1NC(=O)Nc1cccc2c1O[C@H](CN(C)C(=O)NC1CCCCC1)[C@H](C)CN([C@H](C)CO)C2=O
1 | CCN(C[C@H]1[C@H](c2ccccc2)[C@H](CO)N1C(C)=O)C(=O)c1ccccn1
7 | C[C@@H]1CN([C@@H](C)CO)C(=O)c2cc(NS(=O)(=O)c3ccc(F)cc3)ccc2O[C@H]1CN(C)Cc1ccc2c(c1)OCO2
15 | C[C@@H]1CN([C@@H](C)CO)C(=O)c2cc(NC(=O)NC3CCCCC3)ccc2O[C@H]1CN(C)Cc1ccc(C(=O)O)cc1
1 | O=C(C1CCOCC1)N1C[C@H]2[C@@H](c3ccccc31)[C@H](CO)N2C(=O)c1ccccc1
7 | O=C(NC[C@H]1[C@H](c2ccccc2)[C@@H](CO)N1CC1CC1)c1cccnc1
4 | COc1ccc(S(=O)(=O)Nc2cccc3c2O[C@H](CN(C)S(=O)(=O)c2c(C)noc2C)[C@H](C)CN([C@@H](C)CO)C3=O)cc1
-12 | O=C(c1ccncc1)N1C[C@@H]2[C@H](c3ccccc31)[C@H](CO)N2C(=O)c1ccccn1
13 | C[C@@H]1CN([C@H](C)CO)C(=O)c2cc(NC(=O)Nc3ccc(F)cc3)ccc2O[C@@H]1CN(C)Cc1ccc(C(F)(F)F)cc1
-12 | CN(C[C@@H]1[C@H](c2ccccc2)[C@@H](CO)N1C(=O)C1CC1)C(=O)c1ccccn1
14 | C[C@H]1CN([C@@H](C)CO)C(=O)c2cc(NS(=O)(=O)c3cccs3)ccc2O[C@@H]1CN(C)Cc1ccc(C(=O)Nc2ccccc2N)cc1
2 | CO[C@@H]1CN(C)C(=O)c2cc(NS(C)(=O)=O)ccc2OC[C@H](C)N(C(=O)C2CCCC2)C[C@H]1C
-4 | CN(C)C(=O)c1cccc(-c2ccc3c(c2)[C@@H]2[C@@H](CCN2S(=O)(=O)c2ccccc2)[C@H](CO)N3)c1

Molecules above containing an aryl methoxy group:
UUG fidelity | SMILES
2 | COc1ccc(CN2C[C@H](O)COC[C@H]3O[C@@H](CC(=O)N4CCc5ccccc5C4)CC[C@@H]32)cc1
6 | COc1ccc(CN(C)C[C@@H]2Oc3ccc(NC(=O)Cn4cnnn4)cc3CC(=O)N([C@@H](C)CO)C[C@@H]2C)cc1
8 | COc1ccc(C#Cc2ccc([C@H]3[C@H]4CN(C(=O)Nc5ccc(F)cc5)CCCCN4[C@H]3CO)cc2)cc1
13 | COc1cccc(S(=O)(=O)Nc2ccc3c(c2)[C@@H]2C[C@@H](CC(=O)N(C)C)O[C@@H](CO)[C@@H]2O3)c1
-17 | COc1ccc(-c2ccc3c(c2)[C@@H]2[C@@H](CCN2C(=O)c2ccc4c(c2)OCO4)[C@H](CO)N3C)cc1
4 | COc1ccc(C#Cc2ccc3c(c2)[C@H]2[C@H](CCN2S(=O)(=O)c2cccc(OC)c2)[C@H](CO)N3C)cc1
14 | COc1ccccc1-c1ccc2c(c1)[C@@H]1[C@@H](CCN1C(=O)C1CC1)[C@H](CO)N2
25 | CCCNC(=O)[C@H]1[C@H](CO)[C@H]2Cn3c(ccc(-c4ccc(OC)cc4)c3=O)[C@H]2N1CCC
4 | COc1ccc(S(=O)(=O)Nc2cccc3c2O[C@H](CN(C)S(=O)(=O)c2c(C)noc2C)[C@H](C)CN([C@@H](C)CO)C3=O)cc1
